# Compound activity as filed in PubChem.
# nsP2pro primary – inhibitors of chikungunya virus nsP2 protease; FRET peptide cleavage, nsP2pro, fluorescence 1 h; 1.1% of 31,000 active; AID 1964107; Potency, µM (top dose mostly 24.9 µM), for inactives: at the top dose activity change, negative = inhibition, usual class: inhibitors; active means well fitted inhibition curve with a large enough effect; inconclusive means small, poorly fitted or top-dose-only effect; inactive means no such curve, though single readings can be large or run the other way; also: nearly all actives have a fitted effect of over 60% in size; a reference inhibitor and vehicle were the controls
# Target sequence (Q8JUX6 whole entry, looked up): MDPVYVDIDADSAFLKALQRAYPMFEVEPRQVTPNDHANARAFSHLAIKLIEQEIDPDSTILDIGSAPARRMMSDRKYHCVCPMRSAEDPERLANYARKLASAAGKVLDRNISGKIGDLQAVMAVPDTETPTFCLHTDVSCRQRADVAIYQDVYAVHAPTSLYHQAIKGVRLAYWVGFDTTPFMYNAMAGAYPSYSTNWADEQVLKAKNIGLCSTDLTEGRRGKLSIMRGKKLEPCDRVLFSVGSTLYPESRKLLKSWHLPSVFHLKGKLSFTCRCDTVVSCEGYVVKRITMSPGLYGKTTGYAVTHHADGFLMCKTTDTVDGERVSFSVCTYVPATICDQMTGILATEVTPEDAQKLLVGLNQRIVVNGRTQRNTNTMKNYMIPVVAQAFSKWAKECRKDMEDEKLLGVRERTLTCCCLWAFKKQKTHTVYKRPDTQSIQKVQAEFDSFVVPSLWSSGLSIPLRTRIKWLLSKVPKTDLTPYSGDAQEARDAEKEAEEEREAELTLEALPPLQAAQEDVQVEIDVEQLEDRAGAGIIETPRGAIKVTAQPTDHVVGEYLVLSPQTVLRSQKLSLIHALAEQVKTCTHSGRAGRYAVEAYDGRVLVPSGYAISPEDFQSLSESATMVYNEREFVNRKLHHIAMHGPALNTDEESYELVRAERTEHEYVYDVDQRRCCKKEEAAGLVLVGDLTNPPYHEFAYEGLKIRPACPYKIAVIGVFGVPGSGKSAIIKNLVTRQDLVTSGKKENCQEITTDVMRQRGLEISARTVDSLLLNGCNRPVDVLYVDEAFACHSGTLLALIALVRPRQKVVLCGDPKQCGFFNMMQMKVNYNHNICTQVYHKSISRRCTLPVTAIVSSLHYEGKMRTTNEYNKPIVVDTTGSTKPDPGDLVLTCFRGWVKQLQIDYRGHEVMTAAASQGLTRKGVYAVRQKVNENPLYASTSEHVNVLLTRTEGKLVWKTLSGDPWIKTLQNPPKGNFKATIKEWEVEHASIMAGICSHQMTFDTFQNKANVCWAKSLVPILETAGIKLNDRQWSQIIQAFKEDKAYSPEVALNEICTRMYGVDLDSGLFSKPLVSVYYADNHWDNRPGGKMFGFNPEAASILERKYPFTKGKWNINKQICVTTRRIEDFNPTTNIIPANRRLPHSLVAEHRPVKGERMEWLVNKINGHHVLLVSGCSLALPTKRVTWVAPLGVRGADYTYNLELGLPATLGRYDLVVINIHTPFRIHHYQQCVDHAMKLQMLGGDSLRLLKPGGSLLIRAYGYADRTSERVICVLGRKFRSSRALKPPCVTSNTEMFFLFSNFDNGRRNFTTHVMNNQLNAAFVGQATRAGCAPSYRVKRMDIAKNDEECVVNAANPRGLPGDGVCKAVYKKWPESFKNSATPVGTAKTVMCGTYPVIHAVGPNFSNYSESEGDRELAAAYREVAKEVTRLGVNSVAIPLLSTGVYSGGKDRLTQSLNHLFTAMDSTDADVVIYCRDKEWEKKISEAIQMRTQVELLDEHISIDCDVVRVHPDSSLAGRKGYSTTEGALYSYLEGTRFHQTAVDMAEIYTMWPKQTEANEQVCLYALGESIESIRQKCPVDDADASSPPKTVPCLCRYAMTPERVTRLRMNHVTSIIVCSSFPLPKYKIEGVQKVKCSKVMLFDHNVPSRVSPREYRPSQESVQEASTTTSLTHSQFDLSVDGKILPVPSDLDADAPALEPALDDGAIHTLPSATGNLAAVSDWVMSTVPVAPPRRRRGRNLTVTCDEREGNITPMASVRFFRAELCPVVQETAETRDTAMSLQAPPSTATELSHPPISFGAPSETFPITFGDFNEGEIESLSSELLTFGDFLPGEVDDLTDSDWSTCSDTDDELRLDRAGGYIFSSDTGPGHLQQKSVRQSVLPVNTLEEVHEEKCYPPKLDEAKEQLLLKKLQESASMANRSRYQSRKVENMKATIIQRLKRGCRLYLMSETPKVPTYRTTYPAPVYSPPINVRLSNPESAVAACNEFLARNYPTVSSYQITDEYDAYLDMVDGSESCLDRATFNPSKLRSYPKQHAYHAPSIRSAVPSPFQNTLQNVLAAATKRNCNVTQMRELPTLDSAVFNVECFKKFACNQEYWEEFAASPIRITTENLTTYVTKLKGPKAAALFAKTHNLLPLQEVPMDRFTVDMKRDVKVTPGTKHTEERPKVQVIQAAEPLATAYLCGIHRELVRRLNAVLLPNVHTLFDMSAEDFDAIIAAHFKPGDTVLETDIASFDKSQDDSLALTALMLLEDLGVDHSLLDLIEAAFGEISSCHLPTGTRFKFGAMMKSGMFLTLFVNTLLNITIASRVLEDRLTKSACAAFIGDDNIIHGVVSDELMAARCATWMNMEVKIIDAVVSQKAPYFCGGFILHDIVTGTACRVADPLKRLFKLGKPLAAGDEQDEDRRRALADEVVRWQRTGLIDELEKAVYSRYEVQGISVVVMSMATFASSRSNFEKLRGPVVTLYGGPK
# An asterisk follows results filed as active; i = inactive; ? = inconclusive; & = joins results of further samples; [ ] = dose if it differs, or a comment. % is scaled to controls: 0 for no effect and ±100 for the full control effect; potency is read from the fitted curve at half-maximal effect.
Structure	nsP2pro primary
N#Cc1ccccc1CN1CCN(Cc2ccccc2)CC(O)C1 (stereo not drawn)	-9%
CCCCN(c1ccccc1)S(=O)(=O)c1ccc2c(c1)CC(C)N2C(=O)C1CC1 (stereo not drawn)	-14%
COc1cccc(-c2ccccc2NC(=O)C2CCN(Cc3ccccc3F)CC2)c1	1%
CCNc1ccnc(N2C[C@H]3CN(C(=O)N(C)C)C[C@@]3(C(=O)O)C2)n1	1%
CCOC(=O)c1ccccc1NC(=O)CN(c1ccccc1OC)S(=O)(=O)c1ccc(C)cc1	-23%
COc1ccc(C(C)NC(=O)c2ccc(Cn3ccn4nc5c(c4c3=O)CCCC5)cc2)cc1OC (stereo not drawn)	4%
O=C1CC(c2ccccc2C(F)(F)F)c2c(c3ccccc3[nH]c2=O)O1 (stereo not drawn)	-19%
Cc1nc(C)c(C(=O)N2CCCC2c2nc(CCOCC3CCCC3)no2)s1 (stereo not drawn)	-1%
Cc1cc(Nc2cccc(C(F)(F)F)c2)nc2ccc(NC(=O)c3ccc(=O)[nH]c3)cc12	6%
CCC1Oc2ccc(C)cc2N(CC(=O)N2CCN(c3ccccc3OC)CC2)C1=O (stereo not drawn)	-12%
CCOC(=O)c1noc2ncn(CC(=O)O)c(=O)c12	-16%
Cc1ccc(C)c(N2CCN(S(=O)(=O)c3csc(C(N)=O)c3)CC2)c1	-2%
COc1cc2c(cc1OC)/C(=C/c1ccc(O)cc1)C(=O)N2	13%
CC(=O)c1cccc(NC(=O)CN2C(=O)CN(C)C(=O)c3ccccc32)c1	-8%
O=C(N[C@H]1CCCc2c1cnn2-c1ccc(F)cc1F)c1ccccn1	i
COC(=O)CN1C(=O)CSc2ccc(S(=O)(=O)Nc3ccc(C(C)=O)cc3)cc21	-14%
CC(C)CCC[C@@H](C)[C@H]1CC[C@H]2[C@@H]3CC(=O)[C@H]4C[C@@H](O)CC[C@]4(C)[C@H]3CC[C@]12C	?
Cc1ccc(S(=O)(=O)Nc2cnccc2C(=O)Nc2ccc(N3CCOCC3)cc2)cc1	i
Cc1cnc(CC2CCCN(S(=O)(=O)c3ccccc3)C2)n1CC1CC1 (stereo not drawn)	i
CC1(C)C(=O)N(CC(=O)Nc2ccc(OC(F)(F)F)cc2)c2ccccc21	-7%
CCOCCOC1CCN(S(=O)(=O)c2ccc(OC)cc2)CC1	i
Cc1ccc(CN(C)c2nc(-c3ccccc3C(F)(F)F)nc3ccccc23)cc1	0%
CN(C)C[C@@H]1CN(C)C[C@H]1NC(=O)c1cnccn1	i
CC1=CCC2C(C)(C)CCC[C@]2(C)[C@@]12CC[C@](C)(CC(=O)O)O2 (stereo partly drawn)	36%[activator]
O=S(=O)(Nc1ccccc1)c1ccc(NCc2cccc(Cl)c2O)cc1	-23%
Cc1cc(NS(=O)(=O)c2ccc(N(C)C(=O)Cc3ccc(Cl)c(Cl)c3)cc2)no1	-7%
COc1cccc(CC(=O)N2CCCCCC2CN2CCCC2)c1 (stereo not drawn)	-7%
Cc1ccc(-c2c3c(=O)n(C)c(=O)n(C)c3cn2-c2cc(C)ccc2O)cc1	-11%
O=C(C1CCCN(C2CCN(c3ncccn3)CC2)C1)N1CCOCC1 (stereo not drawn)	i
CC(=O)Nc1c(I)c(C(=O)O)c(I)c(N(C)C(C)=O)c1I	-20%
Cc1ccccc1-c1nnc(SCC(=O)N(C)c2ccccc2)o1	-11%
CCC(CC)C(=O)Nc1ccc2nc(SCC(=O)N3c4ccccc4CC3C)sc2c1 (stereo not drawn)	-21%
O=C(NC1CCN(c2cc(-c3ccc(Cl)cc3)[nH]n2)C1)c1c[nH]c2ccccc12 (stereo not drawn)	2%
Cc1cc(CNc2ncnc3ccc(-c4ccc5c(c4)OCO5)cc23)c(C)o1	i
CCS(=O)(=O)N1CCC2(CC1)CC(N1CCN(C(C)C)CC1)CCO2 (stereo not drawn)	2%
Cc1oc2c(c1C(=O)NCc1ccccc1F)C1=NCCN1C=N2	-16%
O=C(NCCc1ccccc1)c1cc(-c2ccc(Cl)cc2)on1	6%
Cc1cccc(C(=O)Nc2ccc(N3CC=C(c4ccccc4C)CC3)c(C(=O)O)c2)c1	9.5µM*
Cc1cncc(C(=O)NC2CCN(c3ccc(=O)n(C)n3)CC2)c1	-3%
COc1ccc(C(=O)N2CCCN(c3nnc4ccc(Cl)cn34)CC2)cn1	-24%
COc1cccc(N2CCN(C(=O)CCC[C@@H]3[C@H]4CCCN5CCC[C@@H](CN3C)[C@@H]45)CC2)c1	i
Cc1ccc(Cl)cc1N1CCN(S(=O)(=O)c2ccc3c(c2)CCN3C(=O)C2CCC2)CC1	-14%
COc1cc(-c2ccc3ncnc(N(C)Cc4csc(C)n4)c3c2)cc(OC)c1OC	-8%
CCN1CC(c2nc(-c3ccc4nc[nH]c4c3)no2)CCC1=O (stereo not drawn)	i
CCc1ccc(NC(=O)CN2C(=O)C3(SCC(=O)N3c3ccccc3)c3ccccc32)cc1 (stereo not drawn)	-1%
COc1ccc(NC(=O)CSc2nnc(-c3nnn(-c4ccc(F)cc4)c3C)o2)cc1	-14%
O=C(O)c1nc(=O)[nH]c(=O)[nH]1	?
O=C(O)c1ccc(CN2CCC[C@H]2c2nc(-c3ccc(F)cn3)no2)cc1	3%[39.2 µM]
COc1ccccc1OCCNC(=O)C(C)C1CCOCC1 (stereo not drawn)	0%
COc1cc(NC(=O)c2ccccn2)ccc1Cl	-4%

# Carrying on.
Structure	nsP2pro primary
O=C1NCCN2CC3(CCN(C(=O)C4(c5ccccc5)CC4)CC3)CC12 (stereo not drawn)	-8%
O=C1N[C@H](CC(=O)N2CCc3ccccc3C2)C(=O)Nc2ccccc21	5%
N[C@@H](Cc1ccc(O[S+](=O)([O-])c2cccc3cnccc23)cc1)C(=O)N1CCN(c2ccccc2)CC1	?
Nc1c(NC/C=C\COc2cc(CN3CCCCC3)ccn2)c(=O)c1=O	-8%[10 µM]
CCc1ccc(C2c3c(oc4cc(C)c(C)cc4c3=O)C(=O)N2c2nc(C)c(C(=O)OC)s2)cc1 (stereo not drawn)	-18%
CCn1cc(S(=O)(=O)N2CCC(C3CCN(C(=O)NC)CC3)C2)cn1 (stereo not drawn)	-1%
COc1ccccc1CNC(=O)CCn1c(=O)c2cccn2c2cccnc21	-4%
COCCN(C)C[C@@H]1CN(C(=O)c2nc(-c3ccccc3)[nH]c2C)C[C@@H]1CO	-6%
CCCOc1ccc2nc(NC(=O)OC)sc2c1	-11%
Cc1cccc(-n2cnc3cc(C(=O)N4CCCC(C(F)(F)F)C4)ccc32)c1 (stereo not drawn)	i

# An excerpt from above in order of SMILES length, highest first:
Structure	nsP2pro primary
COc1ccc(C(C)NC(=O)c2ccc(Cn3ccn4nc5c(c4c3=O)CCCC5)cc2)cc1OC (stereo not drawn)	4%
COC(=O)CN1C(=O)CSc2ccc(S(=O)(=O)Nc3ccc(C(C)=O)cc3)cc21	-14%
Cc1cc(CNc2ncnc3ccc(-c4ccc5c(c4)OCO5)cc23)c(C)o1	i
COc1ccccc1CNC(=O)CCn1c(=O)c2cccn2c2cccnc21	-4%
CCN1CC(c2nc(-c3ccc4nc[nH]c4c3)no2)CCC1=O (stereo not drawn)	i

# Other records
Structure	nsP2pro primary
Cc1ccc(C)c(N2CCN(C(=O)c3cccn4c(=O)c5ccccc5nc34)CC2)c1	-27%
CC[C@H]1CN(C(=O)NC(C)C)CC[C@H]1CC(=O)N(C)CCC#N	-6%[39.2 µM]
CC1=C(C(=O)Nc2ccccc2)C(c2cc(C)ccc2C)N2C(CC(=O)N3CCCC3)=CSC2=N1 (stereo not drawn)	-12%
O=C(c1cc[nH]c1C1CCCNC1)N(Cc1ccc(F)cc1)Cc1cccnc1 (stereo not drawn)	-26%
COc1ccc(-c2noc(CSCC(=O)Nc3cccc(C(F)(F)F)c3)n2)cc1OC	-6%
COc1cc([C@H]2OC[C@](O)(Cc3ccc(O[C@@H]4O[C@H](CO)[C@@H](O)[C@H](O)[C@H]4O)c(OC)c3)[C@@H]2CO)ccc1O	-11%[10 µM]
Cn1c2cc(Br)sc2c2cnn(Cc3ccc(F)cc3)c(=O)c21	-2%
O=C(Cn1nc2c(cc1=O)CCCC2)NCc1ccc(Cl)cc1	-7%
CCO[C@H](Cc1ccc(OCCc2ccc(OS(C)(=O)=O)cc2)cc1)C(=O)O	-6%
O=S(=O)(Nc1nccs1)c1ccc(NCc2cccc(F)c2O)cc1	i

# Two compounds drawn at random from the list so far, as already listed:
Structure	nsP2pro primary
Cc1cnc(CC2CCCN(S(=O)(=O)c3ccccc3)C2)n1CC1CC1 (stereo not drawn)	i
O=S(=O)(Nc1ccccc1)c1ccc(NCc2cccc(Cl)c2O)cc1	-23%

# (list continues)
Structure	nsP2pro primary
C[C@@]1(O)CCN(Cc2cnc(NCC(=O)O)nc2)C[C@@H]1O	-11%
O=C(CSc1nccn1Cc1ccco1)Nc1cc(C(F)(F)F)ccc1Cl	-12%
COc1c2cc(c(O[C@@H]3O[C@H](CO)[C@@H](O)[C@H](O)[C@H]3O)c1OC)CCCCC(O)CCc1ccc(O)c-2c1 (stereo partly drawn)	63%[activator][10 µM]
O=C(CS(=O)(=O)c1cccc2nsnc12)NCc1ccc(Cl)cc1	-18%
CCCN(Cc1ccc(F)cc1)C(=O)c1cnc(-c2ccc(C)cc2)[nH]c1=O	i
CCc1ccccc1NC(=O)c1cnn(-c2ccc(F)cc2)c1C1CCNCC1	?
CC(CNC(=O)c1ccc(Nc2nc3ccccc3n3nnnc23)cc1)c1ccccc1 (stereo not drawn)	-19%
COc1ccc(CCc2nc(-c3nnn4c3COC(c3ccc(Cl)cc3)C4)no2)cc1 (stereo not drawn)	i
CC1=C2[C@@H]([C@H](C)CC[C@H]2/C=C(\C)C(=O)O)[C@H](O)C1	-6%
Cc1ccc(-c2ccc(=O)n(CC(=O)NCCc3ccccc3)n2)cn1	-2%
N#C/C(=C/c1ccccc1Cl)c1nc(-c2cc3ccccc3oc2=O)cs1	-4%
O=C1NCCSc2c1sc1ccc(O)cc21	-14%
Cc1cc(N[S+](=O)([O-])c2cc3c(cc2Cl)NC(=O)CO3)ccc1Cl	-1%
Cc1cc(C(=O)N2CCC(CCOc3ccc(F)cc3)C2)c(C)n1Cc1ccc(F)cc1 (stereo not drawn)	i
COC(=O)c1ccc(Cl)cc1NC(=O)Nc1nnc(N(C)Cc2ccccc2)s1	-7%
CCNc1ncnc2sc3c(c12)CCN(Cc1ccncc1)C3	-1%
Cc1cccc(-n2nnnc2S(C)(=O)=O)c1	?
CCC(Oc1ccc(F)cc1)C(=O)Nc1nc2c(s1)CCCC2 (stereo not drawn)	?
CO[C@@]12CC3[C@@H]([C@@H](O)[C@@H](OC(C)=O)C4[C@](C)(COC(C)=O)CCC[C@]34C)[C@@H](C)C1=CC(=O)O2 (stereo partly drawn)	-6%[10 µM]
O=C1CC[C@H](C(=O)N2CCCCC2)N1	-9%
CC(C)c1ccc(NC(=O)c2ccc(F)c(S(=O)(=O)N3CCc4ccccc4C3)c2)cc1	-14%
CNC(=O)C(C)(C)N1CCC[C@H]1C(=O)NC1CCCCC1	i
CCNC1(C(N)=O)CCN(c2ncnc3c2nc(-c2ccccc2Cl)n3-c2ccc(Cl)cc2)CC1	15%
Cn1c(=O)oc2cc(S(=O)(=O)Nc3ccc(O)cc3)ccc21	-8%
COc1cc2c(cc1CN1CCCC(O)(CN(C)C)C1)OCCCO2 (stereo not drawn)	0%
Cc1ccc(CNc2ncnc3ccc(-c4ccc(C(=O)N(C)C)o4)cc23)o1	i
CCC(=O)NC(c1cc(Cl)c2ccccc2c1O)C1CC1 (stereo not drawn)	i
COc1ccc(OC)c(C2=Nn3c(nnc3-c3ccccc3O)SC2)c1	i
COCCN1C[C@H]2CN(C(=O)C3CCC3)C[C@@]2(C(=O)O)C1	-2%
Oc1c(C(Nc2ccccn2)c2ccccc2F)ccc2cccnc12 (stereo not drawn)	-15%
O=C(Cc1c[nH]c2ccccc12)N1CCc2c(nc(-c3ccc(F)cc3)[nH]c2=O)C1	-20%
Cc1ccc(NS(=O)(=O)c2ccc3oc(=O)c4ncn(C)c4c3c2)cc1C	-8%
COc1cc(Cl)c(C)cc1NC(=O)CSc1nc2c(c(=O)[nH]1)CCC2	-7%
C[S+](=O)([O-])N1Cc2ccccc2CC2(CCN(CC3CCCCC3)CC2)C1	-23%
C[C@@H](O[C@H]1OCCN(Cc2n[nH]c(=O)[nH]2)[C@H]1c1ccc(F)cc1)c1cc(C(F)(F)F)cc(C(F)(F)F)c1	?
COC(=O)c1ccc2c(c1)N(Cc1cc(C)ccc1C)C(=O)c1ccccc1S2(=O)=O	-17%
O=C1Nc2cc(Cl)ccc2Nc2cscc21	-20%
COc1ccc(NC(=O)Cn2c(=O)n(Cc3nc(-c4ccccc4)no3)c(=O)c3cc4c(cc32)OCO4)c(OC)c1	-15%
COc1ccc2nc(-c3ccccc3OCc3ccccc3)sc2c1	0%
Cc1ccc(OCCn2c(CCNC(=O)C3CCCCC3)nc3ccccc32)cc1	3%&-5%
CCOC(=O)C(C)Sc1nc(-c2ccccc2Cl)cc(-c2ccccc2)c1C#N (stereo not drawn)	-24%
O=C(CSc1ncc(S(=O)(=O)c2ccc(Br)cc2)c(=O)[nH]1)NCc1ccccc1Cl	26%
O=C1Nc2ccccc2CN(C/C=C/c2ccccc2)C12CCNC2 (stereo not drawn)	-8%
O=S(=O)(Nc1ccc(Br)cc1F)c1ccc2nc(-c3ccccc3)[nH]c2c1	-17%
O=C1CC(c2cn[nH]c2C(=O)O)c2c(n[nH]c2-c2cccs2)N1 (stereo not drawn)	i

# Only part of the results is shown (hit frequency here may not be typical).
